Bioassay records as filed in PubChem BioAssay.
VACV mCherry inh: inhibitors of vaccinia virus infection (mCherry reporter signal) | Vaccinia virus mCherry reporter infection, fluorescence; about a quarter of the inactives have no number | Potency, µM (titrated, usually from 36.5 µM), for the others: top-dose activity change, negative = inhibition, actives largely listed as inhibitors | actives 0.63% (n = 310,000) | AID 720579; active = well fitted inhibition curve with a large enough effect; inconclusive = small, poorly fitted or top-dose-only effect; inactive = no such curve, though single readings can be large or run the other way; tested in A549 cells; also: nearly all actives have a fitted effect of over 35% in size; inactives centre near -10
Vaccinia Venus: inhibitors of vaccinia virus (Venus reporter); Vaccinia virus Venus reporter expression, fluorescence; actives 0.46% (n = 330,000); Potency, µM (titrated, usually from 36.5 µM), inactives show at the top dose activity change, negative = inhibition, actives largely listed as inhibitors; active means well fitted inhibition curve with a large enough effect; inconclusive means small, poorly fitted or top-dose-only effect; inactive means no such curve, though single readings can be large or run the other way; tested in A549 cells; also: nearly all actives have a fitted effect of over 30% in size; inactives centre near -10
* = called active by the depositor; i = inactive; ? = inconclusive; . = no result given; & = joins results of further samples; [ ] = dose if it differs, or a comment. % is scaled to controls: 0 for no effect and ±100 for the full control effect; potency is read from the fitted curve at half-maximal effect.

SMILES	VACV mCherry inh	Vaccinia Venus
CNC(=O)c1ccsc1NC(=O)c1ccccc1	-10%	-11%
O=C(Nc1ccccc1)c1cccc(S(=O)(=O)Oc2ccc([N+](=O)[O-])cc2)c1	i	-7%
CC(C)c1ccc(OCC(=O)NNC(=S)NC(=O)C2CC2)cc1	-17%	?
CC(C)(C)NC(=O)COC(=O)Cc1ccc(Cl)cc1	-18%	-2%
O=C(N/N=C/c1c[nH]c2ccccc12)c1ccccc1O	-10%	-14%
COc1ccc(C2NC(=O)N(C)C3=C2C(=O)N(c2ccc(C(=O)O)cc2)C3)cc1 (centres undefined)	4%	1%
CCc1ccc(C(=O)c2cn(CC(=O)NCc3ccc(C)cc3)c3nc(C)ccc3c2=O)cc1	-2%	-13%
CCn1c2ccccc2c2cc(CN3CCOc4ccc(C(O)c5cccnc5)cc4C3)ccc21 (centres undefined)	-20%	?
C=CC1=C(C(=O)O)N2C(=O)C(NC(=O)Cc3ccccc3)C2SC1 (centres undefined)	-2%	-2%
Cc1ccc(C)c(NC(=O)c2c(Cl)nc3ccccn23)c1	-20%	-7%
COc1ccccc1NC(=O)c1sc2nc(Cc3ccccc3)cc(C(F)(F)F)c2c1N	?	-5%
CCCc1n(CC)c2ccccc2[n+]1CC(O)COC1CCCCC1 (centres undefined)	-6%	-10%
COc1ccc(C2=CC(=O)CC(c3ccc(F)cc3)C2)cc1 (centres undefined)	-14%	-4%
Cc1cc(C(=O)NCCc2ccc(Cl)cc2)c2c(C)nn(-c3cccc(F)c3)c2n1	-6%	-23%
Cc1ccc(C)c(NC(=S)NNC(=S)Nc2ccc(C(C)C)cc2)c1	-29%	?
COc1ccc2[nH]cc(CCNc3nc(-c4ccc(C(=O)N(C)C)cc4)nc4ccccc34)c2c1	-23%	-11%
CC(=NNc1nc2ccccc2o1)c1cc2ccccc2cn1	?	0.71µM*
CC1CC[C@@]23CCC4(C)[C@@]5(C)CCC6C(C)(C)C(O)CC[C@@]6(C)C5C=C[C@@]4(OC2=O)C3C1C (some centres undefined)	21%	27%
C[C@@H]1OC(C2CCCCC2)N(C)[C@H]2C[C@H]3c4[nH]c5ccccc5c4CCN3C[C@@H]12 (some centres undefined)	i	-3%
CCCCOc1cccc(C(=O)O)c1	.	-10%
CC1(C)N=C(SCc2ccc(F)cc2)c2ccccc2N1	i	1%
Cc1cc(C)cc(C(=O)NCC(=O)N2CCN(C(c3ccccc3)c3ccccc3)CC2)c1	-29%	-15%
Cc1nn(C(=O)CNC(=O)c2ccccc2)c(C)c1C	-6%	16%
COc1cccc(NC(=O)CSc2nnc(-c3cc(-c4ccccn4)nc4ccccc34)o2)c1	.	0%

Another view of some results above:
Order of values – VACV mCherry inh | Vaccinia Venus
- CC1(C)N=C(SCc2ccc(F)cc2)c2ccccc2N1
    i | 1%
- Cc1cc(C)cc(C(=O)NCC(=O)N2CCN(C(c3ccccc3)c3ccccc3)CC2)c1
    -29% | -15%
- Cc1cc(C(=O)NCCc2ccc(Cl)cc2)c2c(C)nn(-c3cccc(F)c3)c2n1
    -6% | -23%

Continued.
SMILES	VACV mCherry inh	Vaccinia Venus
CCNS(=O)(=O)c1cc(S(C)(=O)=O)ccc1Cl	i	-7%
CCSc1nc(NCCN(C)C)c2c3c(sc2n1)COC(C)(CC)C3 (centres undefined)	-10%[7.34 µM]	-8%[7.34 µM]
COc1ccccc1Nc1nc(-c2ccccc2)c(CC(=O)O)s1	-8%	-5%
CCN1C[C@@H]2[C@@H]3C(=O)N(Cc4ccccc4)C(=O)[C@@H]3[C@](Cc3ccccc3)(C(=O)OC)N2C1=NC1CCCCC1	?	?
Cc1onc(-c2c(F)cccc2Cl)c1C(=O)OCC(=O)NC1CC1	-14%	-1%
COc1cccc(CNC(=O)c2ccc(Cn3c(SCc4ccccc4)nc4cccnc43)cc2)c1	-15%	-9%
Cc1cccc(NC(=O)c2cnn3ccccc23)c1C	-5%	-8%
Cc1c(C(=O)N2CCC2)oc2c(F)cccc12	i	-4%
Cc1cccc(C(=O)NC2CCN(C(=O)Nc3ccc(F)cc3)CC2)c1	-6%	-3%
Cc1ccc(-c2cc(-c3ccccc3O)nc(N/N=C/c3cccnc3)n2)cc1	-14%	5%
COc1ccccc1/C=C1\SC(=S)N(N2C(=O)CCCC2=O)C1=O	-7%	-15%
CCCCN(C)CCNC(=O)c1cc(=O)[nH]c2ccc(S(=O)(=O)N3CCCCCC3)cc12	-8%	-6%
Cc1nccn1CCC(=O)NC1CC(C)(C)Cc2c1cnn2-c1ccccc1 (centres undefined)	-16%	4%
Cc1cc(Br)ccc1NC(=O)C1(S(=O)(=O)c2ccc(Cl)cc2)CC1	2%	3%
O=C1CC(c2ccccc2F)C2=C(COC2=O)N1 (centres undefined)	3%	3%
CCCOc1ccc(-c2cnc(SCC(N)=O)nc2N)cc1	.	-9%
Clc1ccc2c(NCc3cccs3)ncnc2c1	-13%	-18%
CCc1ccc(-c2nn(Cc3ccccc3)cc2/C=C/C(=O)O)cc1	.	?
CCC1CCCCN1C(=O)Cn1c(C(=O)OC)cc2ccsc21 (centres undefined)	-10%	-9%
Cc1nn(Cc2ccc(C(=O)O)o2)c(C)c1[N+](=O)[O-]	i	-10%
COc1ccc(Cc2c(-c3cccc(Cl)c3)nc3cc(C)c(Br)c(C)n23)c(C)c1	38%[activator]	4%
O=C(NCC1CCCO1)c1ccc2c(c1)OCO2 (centres undefined)	-9%	-3%
COc1ccc(CCNC(=O)c2ccc(Cn3c(=O)c4ccccc4n(Cc4cccc(F)c4)c3=O)cc2)cc1OC	-19%	1%
O=C(Cn1ncc2c(=O)oc3ccccc3c21)NCc1cccnc1	-25%	-13%
C=CCn1cc(CN2CCC(C(=O)Nc3cccc(-c4cccc(F)c4)c3)CC2)c(C)n1	?	?
O=C(Nc1ccc2oc(-c3ccc(Br)cc3)nc2c1)c1cc2ccccc2o1	-20%	-2%
O=C(NC1CC2CCCC(C1)N2C(=O)NC1CCCCC1)c1ccccc1 (centres undefined)	-11%	-9%
CCN(CC)CCCOC(=O)C1(c2ccccc2)CCCC1	.	-20%
COc1ccc(-c2csc(NC(=O)c3cccc(N4C(=O)CCC4=O)c3)n2)cc1OC	i	-7%
Nc1cc(N)nc(SCC(=O)Nc2ccccc2)n1	-22%	-7%
O=C(c1cc(F)ccc1F)C1CCCN(C(=O)c2ccco2)C1 (centres undefined)	i	-7%
Cc1ccc(-c2cc3cccc[n+]3cc2-c2ccc(C)cc2)cc1	-7%	-21%
COc1cccc(C(=O)N(Cc2cccnc2)c2nc3c(OC)ccc(C)c3s2)c1OC	-26%	3%
Cc1c(Cl)cccc1NC(=S)NCc1cccn1C	-16%	-8%
CCOC(=O)[C@]12CCCC=C1N(Cc1cccc3ccccc13)C(=O)[C@H](CC(=O)NCCCN1CCCC1=O)C2	-21%	-20%
O=c1ccn(Cc2ccccc2)cc1	2%	-8%

3 records picked at random from those above:
SMILES	VACV mCherry inh	Vaccinia Venus
CCN(CC)CCCOC(=O)C1(c2ccccc2)CCCC1	.	-20%
O=C(NC1CC2CCCC(C1)N2C(=O)NC1CCCCC1)c1ccccc1 (centres undefined)	-11%	-9%
COc1ccc(-c2csc(NC(=O)c3cccc(N4C(=O)CCC4=O)c3)n2)cc1OC	i	-7%

Next section.
SMILES	VACV mCherry inh	Vaccinia Venus
Cc1noc(Cn2c(=O)c3ccccc3n(CC(=O)Nc3ccc(Cl)cc3)c2=O)n1	-2%	-6%
C=CCNc1nnc(SC2CC(=O)N(c3ccc(OC)cc3)C2=O)s1 (centres undefined)	-7%	-4%
Cc1nc2c(oc3ccc(Cl)cc32)c(=O)[nH]1	-13%	-15%
Cc1ccc(NC(=O)CCS(=O)(=O)c2ccc(Br)cc2)nc1	-14%	-14%
CCC(C)NC(=O)CC(NS(=O)(=O)c1ccc(C)cc1)c1ccc(OC)cc1 (centres undefined)	-19%	-16%
Cc1ccc(-c2nc3ncccc3o2)cc1NC(=O)Cc1ccc(Cl)cc1	-14%	-1%
O=c1nc2n(CCO)c3ccccc3cc-2c(=O)[nH]1	-12%	-3%
CCOc1ccc(S(=O)(=O)NCC2CCCO2)cc1 (centres undefined)	i	-11%
CCOC(=O)C1Oc2ccccc2C(c2ccc(F)cc2)=C1C(=O)OC (centres undefined)	i	-12%
COc1ccccc1-c1ccnc(-n2ncc(C(=O)N3CCN(C4CCCC4)CC3)c2-c2ccco2)n1	-19%	-7%
CSCCC(NC(=O)COc1ccccc1)C(=O)OC(C)C(=O)Nc1ccccc1C (centres undefined)	-11%	-11%
CSc1ccccc1OCc1cc(C(=O)NCc2csc(C(C)C)n2)no1	-5%	-17%

Whole records, looked up by structure:
O=c1nc2n(CCO)c3ccccc3cc-2c(=O)[nH]1 across the screens: VACV mCherry inh: -12%; Vaccinia Venus: -3%
Cc1ccc(-c2nc3ncccc3o2)cc1NC(=O)Cc1ccc(Cl)cc1 across the screens: VACV mCherry inh: -14%; Vaccinia Venus: -1%

Remaining list, next part.
SMILES	VACV mCherry inh	Vaccinia Venus
Cc1ccccc1C(O)c1ccccn1 (centres undefined)	-8%	-10%
O=C(COC(=O)c1cccnc1Cl)c1ccc(F)cc1	i	-8%
O=C1OC(c2ccccc2)(N(Nc2ccccc2)c2ccccc2)c2ccccc21 (centres undefined)	?	?
O=C(c1cccc(S(=O)(=O)Nc2ccc(Br)cc2)c1)N1CCCC1	-15%	3%
CC1(C)CC2CC(C)(CN2c2ncnc3ccc(Br)cc23)C1 (centres undefined)	-23%	?
Cc1ccc(-c2noc(CNC(=O)c3ccc(C)c(Cl)c3)n2)cc1	-15%	-8%
Cc1ccc(-c2c(C#N)c(N)n(-c3ccc(Cl)cc3)c(=O)c2C#N)cc1	20%	-2%
O=S1(=O)CCO[C@H]2Cc3ccccc3[C@H]2N1Cc1ccc(Cl)cc1	-15%&-14%	-8%&-11%
CC(NCc1ccncc1)C12CC3CC(CC(C3)C1)C2 (centres undefined)	-4%	-5%
C=Cc1ccc(C2=CC(=O)C[C@H](c3ccc(OC)cc3)C2)cc1	i	-17%
COc1ccc(CCNC(=O)CSc2nnnn2Cc2ccc3c(c2)OCO3)cc1OC	.	-29%
CCCn1c(SCC(=O)NCc2ccco2)nnc1-c1ccncc1	?	2%
CCOC(=O)CSc1nc(N)cc(=O)[nH]1	.	-15%
Cc1c(NC(=O)Cc2ccccc2)cccc1-c1nc2cccnc2s1	-18%	-9%
OC(c1ccccc1)c1nc(/C=C/c2ccc(C(F)(F)F)cc2)cs1 (centres undefined)	?	-5%
Cc1ccc(NC(=O)CN(C)C(=O)COC(=O)C2=COCCO2)cc1	-11%	-6%
C[C@H]1O[C@@H](n2cc(F)c(=O)[nH]c2=O)[C@H](O)[C@@H]1O	?	-17%
CCOC(=O)c1[nH]c(C(=O)O)c(OC(=O)CC)c1C	-29%	-10%
CCC(CO)Nc1ccn2nc(-c3cc(OC)c(OC)c(OC)c3)cc2n1 (centres undefined)	5%	-10%
O=C(COC(=O)CC1CCCC1)Nc1ccc(Cl)cn1	-16%	-2%
O=C(O)CCC(=O)Nc1sc2c(c1C(=O)Nc1ccccc1)CCCCC2	-15%&-8%	15%&-2%
COC(=O)c1ccc(NC(=O)CSC2=Nc3ccccc3C3CC=NN23)cc1 (centres undefined)	-17%	-3%
Cc1ccc(CCNc2ccccc2C)cn1	i	-16%
C[C@@H](NC(=O)c1nc[nH]c1C(=O)NCC(=O)OCc1ccccc1)c1ccccc1	i	-9%
CCOc1cc(NC(=O)c2ccccn2)c(OCC)cc1NC(=O)CC(C)C	-14%	0%
CC(=O)c1ccc(Nc2nc(C(N)C3CCCCC3)cs2)cc1 (centres undefined)	?	-28%
CC(C)(C)NC(=O)NC(=O)CN1CCN(S(=O)(=O)c2ccccc2)CC1	9%	-12%
CCOc1ccc(C(=O)/C=C/c2cn(CN3CCN(C)CC3)c3ccccc23)cc1	-19%	-23%
Cc1ccc(S(=O)(=O)CC(=O)Nc2ccc(Cl)cn2)cc1	-9%	-3%
O=C1CCC/C(=N/NC(=O)c2ccc(NS(=O)(=O)c3cccs3)cc2)C1	16%	3%
O=C(CNC(=O)c1ccccc1)OCc1cccc([N+](=O)[O-])c1	i	-17%
CN(C)C(=O)c1ccc(-c2ccc3ncnc(NC4CCNCC4)c3c2)cc1	1%	-6%
COc1ccc(CN(C)Cc2c(O)ccc3ccccc23)cc1	-26%	-10%
CCCCNC(=O)CSc1nc2ccccc2nc1Cc1ccc(C)cc1	-5%	6%
C[C@H]1CCC[C@@]2(O[C@@H](CCO)C[C@H](O)[C@H]2O)O1	-5%	2%
O=C(CCc1ccccc1)OCCN1CCOCC1	.	-11%
Nc1nc(Nc2ccccc2)nc(C(F)(F)F)n1	i	-12%
CC1(C(=O)NCc2ccc3c(c2)OCO3)CCN1C(=O)Cc1cccc2ccccc12 (centres undefined)	i	-11%
Cc1cccc(C)c1NC(=O)CNC(=O)c1ccc2c(c1)OCCO2	-24%	-18%
COc1ccc([N+](=O)[O-])cc1N(CC(=O)NCc1ccco1)S(C)(=O)=O	-19%	-2%
C=CCNC(=S)N1CCC(C(=O)c2ccc3c(c2)OCCO3)CC1	i	-8%
CCOc1ccc(C2C(C(=O)Nc3ccccc3)=C(C)Nc3nc(-c4ccccc4Cl)nn32)cc1OC (centres undefined)	-23%	-15%
O=C(N/N=C/c1ccc(Cl)cc1Cl)c1cccc(N2CCCC2=O)c1	-13%	-13%
CCCCCCN=CC1=C(O)CC(C)(C)CC1=O	-13%	-13%
CCc1nnc(NC(=O)CSc2nnc(-c3ccccc3NC(=O)c3ccccc3)o2)s1	i	-13%

No enrichment for hits; any-hit rate near 0.88%.
